AmpC nodet inh = Promiscuous and Specific Inhibitors of AmpC Beta-Lactamase (assay without detergent); AmpC nitrocefin hydrolysis, absorbance 480 nm, no detergent; potencies from a single point are estimates; Potency, µM (highest dose often 28.7 µM), without a hit: top-dose activity change, negative = inhibition; actives 1.8% (n = 71,000); AID 585, 2007; active = falling curve, for most hits resting on a single point; inconclusive = weak or doubtful change; inactive = flat or rising curve; note: % of control where 0% means no effect; about half of the hits show no inhibition at the top dose; a quarter of the inactives give rising signals
Target sequence (P00811 whole entry, looked up): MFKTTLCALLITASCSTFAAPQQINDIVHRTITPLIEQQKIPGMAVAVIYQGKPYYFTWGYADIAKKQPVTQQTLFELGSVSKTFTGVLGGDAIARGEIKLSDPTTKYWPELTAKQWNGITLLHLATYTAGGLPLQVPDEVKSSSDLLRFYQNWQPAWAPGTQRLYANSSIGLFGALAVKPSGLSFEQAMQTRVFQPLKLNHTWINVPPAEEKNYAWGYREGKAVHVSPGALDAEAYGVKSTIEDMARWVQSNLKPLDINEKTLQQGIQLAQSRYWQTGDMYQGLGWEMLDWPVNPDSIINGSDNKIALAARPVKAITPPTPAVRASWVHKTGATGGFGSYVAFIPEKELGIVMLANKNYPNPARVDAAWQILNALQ
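AmpC, 20 mM phosphate pH 7.0; 15 min cpd preinc, RT; start with nitrocefin (800 uM stock); A480 kinetic read, 20 s intervals, 4 min. No-enzyme wells = negative control.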
An asterisk follows results filed as active; ? = inconclusive; & = joins results of further samples; [ ] = dose if it differs, or a comment. Potency is the fitted concentration of half-maximal effect. Not all compounds are listed; count on the stated rates, not on these rows.

SMILES	AmpC nodet inh
CC(C)C1N(S(=O)(=O)c2ccccc2)CCN1S(=O)(=O)c1ccccc1	20%
Nc1ccccc1-c1nnc(SCc2ccccc2F)[nH]c1=O	-14%
O=C1CCC(=O)N1c1ccccc1-c1ccccc1	0%
COc1ccc(-n2c(=O)cnc3cnc(OC)nc32)cc1	5%
Cc1n[nH]c(C)c1S(=O)(=O)N1CCOCC1	6%
O=C1C2CCCN2C(c2cccs2)N1c1ccccn1 (stereo not drawn)	-10%
COc1ccc(S(=O)(=O)Nc2ccc(F)c(F)c2)cc1Cl	-19%
COc1ccc(-c2nc3cnccn3c2Nc2ccc3c(c2)OCO3)cc1	85%
O=C(Nc1ccc2c(c1)OCO2)C1CCN(c2ccc(S(=O)(=O)N3CCOCC3)cc2)CC1	0%
O=C(O)C1C2C=CC3(O2)C1C(=O)N1c2ccccc2COC13 (stereo not drawn)	-4%
CCOC(=O)C1=C(C)N=c2s/c(=C\c3cccn3C)c(=O)n2C1c1cccc(OC)c1OC (stereo not drawn)	33%
COCCN1CCN(c2c(C)c(C)nc3cc(-c4cccc(OC)c4)nn23)CC1	118%
CCOC(=O)COc1ccc(Cl)cc1C1NC(=O)NC(C)=C1C(C)=O (stereo not drawn)	8%
CSc1ccccc1C(=O)NC1CC2CCC1C2 (stereo not drawn)	-7%
Cc1ccc(CCNC(=O)C2CCN(C(=O)c3sccc3-n3cccc3)CC2)cc1	74%
COc1cccc(N2C(=O)C(CC(=O)Nc3ccc(F)cc3)N(C3CCCCC3)C2=O)c1 (stereo not drawn)	15%
CC1CC(=O)c2cnc(NCC3CCCO3)nc2C1 (stereo not drawn)	1%
O=C(Nc1nnc(-c2ccccc2)o1)NC1CCCCC1	-11%
Cc1cccc(C(=O)OCC(=O)Nc2ccc(N3CCCCC3)cc2)c1O	-14%
Nc1cnn(C2CCCO2)c(=O)n1 (stereo not drawn)	-6%
CN(C)CC[C@H](c1ccc(Br)cc1)c1ccccn1	1%[12.8 µM]
O=c1ccc(=O)n2n1CC(O)C2	-5%
CCOC(=O)c1ccc(N2C(=O)CC(NC3CCN(C(=O)c4cccc(Cl)c4)CC3)C2=O)cc1 (stereo not drawn)	100%
CCCn1c(-c2ccc(F)cc2)n[nH]c1=S	13%
O=C(O)C1CCCCC1C(=O)Nc1nccs1 (stereo not drawn)	-2%

The last 7 compounds of the section above come first, to join the parts.
SMILES	AmpC nodet inh
Cc1cccc(C(=O)OCC(=O)Nc2ccc(N3CCCCC3)cc2)c1O	-14%
Nc1cnn(C2CCCO2)c(=O)n1 (stereo not drawn)	-6%
CN(C)CC[C@H](c1ccc(Br)cc1)c1ccccn1	1%[12.8 µM]
O=c1ccc(=O)n2n1CC(O)C2	-5%
CCOC(=O)c1ccc(N2C(=O)CC(NC3CCN(C(=O)c4cccc(Cl)c4)CC3)C2=O)cc1 (stereo not drawn)	100%
CCCn1c(-c2ccc(F)cc2)n[nH]c1=S	13%
O=C(O)C1CCCCC1C(=O)Nc1nccs1 (stereo not drawn)	-2%
CCOc1ccccc1-n1c(SCC(N)=O)nc2ccccc2c1=O	5%
CSc1nsc(SCc2cnc(C)nc2N)n1	-6%
O=C(NCCCN1CCOCC1)c1cc(-c2ccc(Br)cc2)on1	39%
CC(NC(=O)c1cccs1)C(c1cccs1)N1CCN(c2ccccc2)CC1 (stereo not drawn)	15%
CCOC(=O)c1sc(/N=C/N(C)C)c(C(=O)OCC)c1C	40%
Cc1c(C(=O)N2CCC3(CC2)OCCO3)oc2ccccc12	19%
CSc1ccc(NC(=O)[C@H]2CCCC[C@@H]2C(=O)O)cc1	-1%[5.75 µM]
Cc1ccc(OCCN2C(=O)c3ccccc3C2=O)c(C)c1	-2%
Nc1nc2c(c(=O)[nH]1)N[C@H](CCNc1ccc(C(=O)O)cc1)CN2	10%[5.75 µM]
CCOC(=O)N1CCN(S(=O)(=O)c2ccc3c(c2)SCC(=O)N3)CC1	13%
Cc1ccc(C(=O)COc2cccc(NC(=O)c3ccco3)c2)cc1	1%
O=C(CN1C(=O)NC2(CCCC2)C1=O)Nc1cccc(-c2nnc3n2CCCCC3)c1	11%
O=C(Nc1ccc2oc(-c3ccccc3)nc2c1)c1cccnc1	41%
CCCC(=O)C1=C(O)C(C(=O)OC)C(C)(C)CC1=NC (stereo not drawn)	-3%
O=C(COc1ncnc2ccccc12)N1CCN(C(=O)c2ccco2)CC1	-14%
CCCCCOc1ccc(NS(C)(=O)=O)cc1	13%
Cc1cc(NC(=O)CSc2ccc3nnc(-c4ccccn4)n3n2)no1	-2%
COCCNC(=O)C1(CC(C)C)C=CCN1C(C)=O (stereo not drawn)	0%
COC(=O)CNC(=O)[C@@]1(Cc2ccccc2)C=C[C@@H](C)N1C(=O)c1ccccc1	35%
Cc1c(C)[n+](=O)c(-c2ccco2)c(C)n1[O-]	-2%
O=S(=O)(c1cccc2c(S(=O)(=O)N3CCCC3)cccc12)N1CCCC1	13%
O=C(c1ccc2c(c1)OCCO2)C1CCN(S(=O)(=O)c2cccc(F)c2)CC1	16%
CC(=O)N1CCC[C@@]2(CCN(c3ccncc3)C2)C1	8%
O=C1c2ccccc2S(=O)(=O)N1CC(O)COc1ccc(Br)cc1 (stereo not drawn)	13%
C#CCN1C(C)=C(C(=O)OC)[C@@H](c2cccc([N+](=O)[O-])c2)C(C(=O)OCC)=C1C	22%

(list continues)
SMILES	AmpC nodet inh
N[C@H](CCP(=O)(O)O)C(=O)O	17%&-2%&-12%
COc1ccccc1NC(=O)Cn1c(=O)n2nc(C)nc2c2ccccc21	26%
Cc1nc(SCn2nnc3ccccc3c2=O)nc(C)c1C	48%
CC1CCCN(S(=O)(=O)c2coc(C(N)=O)c2)C1 (stereo not drawn)	-3%
COc1c(C)cc(Br)cc1C(=O)Nc1cccc(NC(=O)c2ccco2)c1	5%
CCOC(=O)C1(C)NC(c2ccc(OC)cc2OC)C2C(=O)N(c3cccc(OC)c3)C(=O)C21 (stereo not drawn)	70%
C=CCOC(=O)C1=C(C)Nc2nnnn2C1c1cccc(OC)c1OC (stereo not drawn)	32%
COc1ccccc1CNc1nc(-c2ccoc2)nc2ccccc12	7%
O=C(O)CCCCCN=C1CCc2ccccc2N1	-12%
O=C1c2ccccc2C(=O)N1CCc1nc(-c2ccccn2)no1	-1%
CN(C)/C=C1\N=C(c2ccc3c(c2)OCO3)OC1=O	0%
N#Cc1cccc(NC(=O)N2CC[C@@]3(CCCNC3)C2)c1	-19%
Cc1ccc(CNC(=O)c2ccc(Cn3nc(C)c(Cl)c3C)o2)cc1	81%
O=C1NC(Nc2nc3ccccc3s2)(C(F)(F)F)C(=O)N1C1CCCCC1 (stereo not drawn)	-16%
C=CCn1c2ccccc2c2nnc(SCC(=O)NC(C(=O)OC)C(C)C)nc21 (stereo not drawn)	46%
CCNC(=O)N1C(=O)C2(OCCO2)c2ccccc21	14%
CCOc1ccc(C2N(c3cc(C)on3)C(=O)C3CCCN32)cc1OC (stereo not drawn)	-6%
Cn1c(O)c(C=Nc2ccc3c(c2)CCC3)c(=O)n(C)c1=O	-6%
N=c1c2c3c(sc2ncn1N)CCCCC3	-4%
COc1ccccc1CNCc1cc(OC)c(OC)cc1OC	6%
COc1ccc(NC(=O)c2ccco2)cc1NC(=O)c1cccs1	-2%
CCN(CC)CCNS(=O)(=O)c1ccc(Cl)cc1	-6%
CC(=O)Nc1ccc(S(=O)(=O)N2CCN(C(=O)N3CCOCC3)CC2)cc1	-8%
CCn1c(Cc2ccc(OC)cc2)nnc1SCC(=O)NC1CCCCC1	29%
O=C(CSc1nc2ncccc2[nH]1)NCc1ccccc1	9%

(continued)
SMILES	AmpC nodet inh
CC(=O)c1sc(NC(=O)c2ccc(Cn3cc(Br)cn3)o2)nc1C	10%
CCOC(=O)C1CCN(CC(=O)Nc2c(C(=O)OC)[nH]c3cccc(C)c23)CC1	77%
O=S(=O)(CCc1nc2ccccc2o1)c1ccc(Cl)c(Cl)c1	6%
CN1CCN(c2ncc3nc(-c4cn(C)c5ccccc45)c(=O)n(CCC#N)c3n2)CC1	152%
CCOc1ccc(/C(O)=C2/C(=O)C(=O)N(CCOCCO)C2c2ccc(F)cc2)cc1 (stereo not drawn)	-11%
N#Cc1c(NC(=O)Cn2cnc3ccccc3c2=O)oc(-c2ccccc2)c1-c1ccccc1	-23%
CC(=O)c1c(N(C)C)ccnc1C(F)(F)F	9%
CN1C(=O)N(S(=O)(=O)c2ccc(F)c(F)c2F)C(=O)C1(C)C	20%
CCCCC(c1nnnn1Cc1ccco1)N1CCN(c2nc3ccccc3s2)CC1 (stereo not drawn)	37%
CCC(Sc1nc(N)c(NC(=O)c2ccc(OC)c(OC)c2)c(=O)[nH]1)C(=O)OC (stereo not drawn)	12%
Nc1nonc1/C(=N/O)N1CCN(CCO)CC1	-2%
O=C(OCc1ccccc1)Oc1cncc(C(=O)O)c1	-4%
CSc1nsc(SCCN2C(=O)c3ccccc3C2=O)n1	-6%
CN(C)c1ccc(NC(=O)c2cccc(N3C(=O)CCC3=O)c2)cc1	-5%
COc1ccc(CN(C)CCc2ccccn2)cc1OC	6%
Cc1ccc2c(c1)N(CCC(=O)NC1CC1)C(=O)C(C)O2 (stereo not drawn)	2%
CC(C)(C)c1ccc2c(c1)N(CC(=O)O)C(=O)CO2	7%
COc1ccc(Oc2ncc3nc(-c4ccc(OC)cc4)c(=O)n(C)c3n2)cc1	-8%
Cc1cc(C(=O)CSc2nnc(-c3ccc(Cl)cc3)n2CC2CCCO2)c(C)n1C (stereo not drawn)	48%
CCC1Oc2ccc(C)cc2N(CC(=O)N2CCN(c3ccc(F)cc3)CC2)C1=O (stereo not drawn)	98%
O=C1C=C(O)CC(c2ccc(Cl)cc2)C1 (stereo not drawn)	-23%
CCc1nc(N)c(C#N)c(-c2cccnc2)c1C	-4%
O=C(NCc1ccccn1)c1c(Cl)cccc1Cl	-5%
COc1cc(C2N(c3ccccc3)CCN2c2ccccc2)cc(OC)c1OC	22%
CC(=O)Nc1ccc(S(=O)(=O)N2CCN(c3cc(C)nc4ccccc34)CC2)cc1	74%

Ordered by number of heavy atoms (largest number first): part of the list above
SMILES	AmpC nodet inh
CCOC(=O)c1ccc(N2C(=O)CC(NC3CCN(C(=O)c4cccc(Cl)c4)CC3)C2=O)cc1 (stereo not drawn)	100%
Cc1cc(C(=O)CSc2nnc(-c3ccc(Cl)cc3)n2CC2CCCO2)c(C)n1C (stereo not drawn)	48%
CCNC(=O)N1C(=O)C2(OCCO2)c2ccccc21	14%

Carrying on.
SMILES	AmpC nodet inh
CCC(=O)Nc1ccc(NC(=O)c2cccc(OC)c2)nc1	-5%
CNC(=O)N(O)C1N(C)C(=O)N(CC(=O)OC)C1(C)C (stereo not drawn)	-14%
COc1ccc(C(=O)NCCNC(C)=O)cc1S(=O)(=O)NCc1ccc(Cl)cc1	-12%
COc1cc(-c2nc(Cc3c(F)cccc3Cl)no2)cc(OC)c1OC	14%
CCOC(=O)c1cc(NC(=O)N2CCCCC2)c(C)nc1C	3%
O=C(NCC1CCCCC1)C1CCCN(C(=O)NC2CCCCC2)C1 (stereo not drawn)	46%
Cc1onc(-c2ccccc2)c1C(=O)NCc1ccc2c(c1)OCO2	2%
COC(=O)C1C2C=CC3(CN(Cc4ccco4)C(=O)C13)O2 (stereo not drawn)	14%
CCCS(=O)(=O)N1CCCC(C(=O)NCCCN(Cc2ccccc2)C(C)C)C1 (stereo not drawn)	0%
CCN1CCN(Cc2ccccc2NC(=O)Nc2ccc(C)cc2)CC1	5%
Cc1cc(N(C)C)c(C#N)c(N2CCOCC2)n1	-13%
CCS(=O)(=O)N1CCC(C(=O)NCC2CCCO2)CC1 (stereo not drawn)	0%
COc1cccc(NC(=O)c2ccccc2SC)c1	-18%
OC(COCc1ccccc1)CN1CCN(c2ccccc2F)CC1 (stereo not drawn)	29%
COc1ccc(CCNS(=O)(=O)c2ccc3c(c2)CCN3C(=O)CCC(=O)O)cc1OC	4%
O=C(NC1CCCCC1)NC1CC2CCC(C1)N2C(=O)NCc1ccccc1 (stereo not drawn)	4%
Nc1c(-c2ccccc2)n[nH]c1-c1ccccc1	-9%
CCOC(=O)C(CCc1nnc(N)s1)C(=O)OCC	-1%
Cc1cccc(S(=O)(=O)Nc2cccc(-c3cn4ccsc4n3)c2)c1	?
C=C(C)Cn1c(N2CCN(CC)CC2)nc2c1c(=O)[nH]c(=O)n2C	-8%
CC(=O)N1CCc2cc(Br)cc(S(=O)(=O)N3CCN(C(=O)c4ccco4)CC3)c21	81%
CCCC(=O)Nc1ccc(NC(=O)c2cccs2)cn1	-4%
N#CCC(=O)Nc1ncn(Cc2ccccc2Cl)n1	-1%
COc1ccc(-c2cc3ccccc3n2CC(O)Cn2nc(C)cc2C)cc1 (stereo not drawn)	71%
COC(=O)CCN(C(C)=O)c1ccc(N)cc1	1%

A few values from the entries so far:
AmpC nodet inh, `CCC(=O)Nc1ccc(NC(=O)c2cccc(OC)c2)nc1` reads -5%
AmpC nodet inh, `CCCS(=O)(=O)N1CCCC(C(=O)NCCCN(Cc2ccccc2)C(C)C)C1` (stereo not drawn) reads 0%

Laid out differently: entries from further up.
Molecule,AmpC nodet inh
COC(=O)C1C2C=CC3(CN(Cc4ccco4)C(=O)C13)O2 (stereo not drawn),14%
OC(COCc1ccccc1)CN1CCN(c2ccccc2F)CC1 (stereo not drawn),29%
CNC(=O)N(O)C1N(C)C(=O)N(CC(=O)OC)C1(C)C (stereo not drawn),-14%
COc1ccc(-c2cc3ccccc3n2CC(O)Cn2nc(C)cc2C)cc1 (stereo not drawn),71%
CCCC(=O)Nc1ccc(NC(=O)c2cccs2)cn1,-4%

Assay outcomes: PubChem, National Center for Advancing Translational Sciences (NCATS)
